# TRPV1 potentiator = potentiators of human vanilloid receptor 1 (TRPV1); Q8NER1; TRPV1-expressing cells, Fluo-8 calcium influx, capsaicin EC20 potentiation; host cell line not named in the record; control for the full effect not named in the record; potentiation, % at 8.33 µM; 320,000 tested, 0.02% active; AID 540277; active means potentiation above 80%; inconclusive means 30% to 80%; inactive means below 30%; note: 0% is about no effect
#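 Fluo-8 calcium influx in TRPV1-expressing cells, kinetic read (ex 480/em 520 nm). Compound added and read 3 min for agonist activity, followed by capsaicin at EC20 final and 2 min further read for enhancement.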
# TRPML1 blocker = blocks the human TRPML1 channel | Q9GZU1 | TRPML1-inducible cells, Ca2+ dye fluorescence, FDSS; active compounds read low; inhibition of EC80 agonist-evoked calcium signal | activity change, negative = inhibition, % (concentration not given with the values) | 390,000 tested, 0.02% active; in the data active means activity change below about -50%; inconclusive means about -30% to -50%; inactive means above about -30%;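 note: stimulus is agonist 54-4 at its EC80 concentration; % is set by controls: 0 for no effect and ±100 for the full control effect; the text of the record puts the active cut at -80%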
# Target sequence (Q9GZU1 whole entry, looked up): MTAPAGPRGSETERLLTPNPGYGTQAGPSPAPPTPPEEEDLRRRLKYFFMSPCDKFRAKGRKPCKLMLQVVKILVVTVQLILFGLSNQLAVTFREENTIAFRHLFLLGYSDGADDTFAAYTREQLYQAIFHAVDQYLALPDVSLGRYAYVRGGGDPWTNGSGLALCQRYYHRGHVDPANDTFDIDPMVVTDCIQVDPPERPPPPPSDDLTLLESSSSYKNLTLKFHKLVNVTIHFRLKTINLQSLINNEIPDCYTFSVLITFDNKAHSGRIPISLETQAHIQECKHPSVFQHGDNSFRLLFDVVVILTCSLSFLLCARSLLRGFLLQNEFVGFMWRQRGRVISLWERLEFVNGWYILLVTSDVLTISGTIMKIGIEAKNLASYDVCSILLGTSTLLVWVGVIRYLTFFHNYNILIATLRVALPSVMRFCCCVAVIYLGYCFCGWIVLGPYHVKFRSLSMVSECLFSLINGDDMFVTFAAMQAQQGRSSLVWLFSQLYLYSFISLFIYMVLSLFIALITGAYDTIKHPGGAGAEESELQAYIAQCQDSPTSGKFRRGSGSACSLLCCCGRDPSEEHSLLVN
#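 Calcium fluorescence in TRPML1-DL cells induced overnight with Tet: a 110 s read after compound pin addition, then a 110 s antagonist read after challenge with 54-4 at 4 uM final (EC80).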
# gsp antag = antagonizes gsp, the McCune-Albright syndrome mutation | gsp-mutant cells, cAMP HTRF, 30 min; control for the full effect not named in the record | Potency, µM (series often up to 76.9 µM), for the others: top-dose activity change, negative = inhibition, most hits filed as inhibitors | 340,000 tested, 0.4% active; active = falling curve of any shape with a large fitted effect; inconclusive = falling curve, mostly with a smaller effect; inactive = flat or rising curve; cell line not stated here;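 note: intracellular cAMP measured with PDE inhibitor Ro 20-1724 present during compound exposure; potency is the fitted concentration of half-maximal effect; % is set by controls: 0 for no effect and ±100 for the full control effect; nearly all actives have a fitted effect of over 65% in size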
#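 Cells in G418 medium, seeded 16-24 h, 37C; buffer exchange to DPBS + 1 mM CaCl2, 0.5 mM MgCl2, 0.05% BSA; cpds in DMSO + […] (300 uM stock), 30 min 37C; HTRF cAMP detection.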
# ClpP mod = qHTS Assay for Activators of ClpP; ATP-dependent Clp protease proteolytic subunit (Bacillus subtilis (strain 168)), P80244; purified B. subtilis ClpP, FRET peptide cleavage, 20 min; Potency, µM (series often up to 57.5 µM), for the others: at the top dose activity change, negative = active; 340,000 tested, 1.9% active; active = well fitted falling curve with a large enough effect; inconclusive = small, poorly fitted or top-dose-only effect; inactive = no such curve, though single readings can be large or run the other way; note: potency is the fitted concentration of half-maximal effect; the source files actives as falling curves though it sought activators and does not explain the sign; nearly all actives have a fitted effect of over 65% in size; many hits overshoot -100%
# Target sequence (P80244 whole entry, looked up): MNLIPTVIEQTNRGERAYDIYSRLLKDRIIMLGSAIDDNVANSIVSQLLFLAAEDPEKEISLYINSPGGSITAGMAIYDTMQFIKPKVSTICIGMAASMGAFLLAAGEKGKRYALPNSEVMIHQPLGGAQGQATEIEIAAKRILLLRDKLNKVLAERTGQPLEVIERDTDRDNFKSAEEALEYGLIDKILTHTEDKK
#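 Buffer: 100 mM Tris/HCl pH8, 100 mM KCl, 0.05% low protease BSA, 2.5% glycerol, 0.01% Tween-20. ClpP 10 microg/mL final; 20 min RT; delta FRET normalized to ADEP and DMSO controls.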
# gsp agonist = agonists of gsp mutant (McCune-Albright syndrome); gsp mutant cells, cAMP HTRF, 30 min; control for the full effect not named in the record; Potency, µM (doses to about 76.9 µM), for inactives: top-dose activation (cAMP increase), usual class: activators; 340,000 tested, 0.13% active; active = well fitted activation curve with a large enough effect; inconclusive = small, poorly fitted or top-dose-only effect, or another doubt; inactive = no such curve, though single readings can be large or run the other way; cell line not stated here;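 note: phosphodiesterase inhibitor Ro 20-1724 added with compounds to block cAMP breakdown; potency is the fitted concentration of half-maximal effect; nearly all actives have a fitted effect of over 60% in size; about a fifth of the inactives were tested at one dose only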
#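 Cells stably selected in G418 were plated at 2000/well, grown 16-24 hr, then given compounds in DMSO with the PDE inhibitor […] (300 uM solution added) for 30 min at 37C; cAMP was read by HTRF.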
# Menin-MLL FL inh = displaces fluorescein MLL peptide from human menin | Fluorescence polarization, fluorescein-MLL peptide displacement from menin | FP activity change, % at 61.4 µM | 290,000 tested, under 10 active | AID 1766; inconclusive = falling polarisation curve, or a change in total fluorescence; inactive = total fluorescence flat and polarisation flat or rising; no compound was filed as active; the % refers to the polarisation; negative = inhibition;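 note: % of control where 0% means no effect; inhibitors lower the polarisation; unlabelled MLL peptide was the positive control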
# Sfp inh = blocks B. subtilis Sfp PPTase activity | Q9F4F7 | Biochemical Sfp PPTase activity, qHTS | AID 1490 | Potency, µM, inactives show max response, negative = inhibition, usual class: inhibitors | 310,000 tested, 3.5% active; active = well fitted inhibition curve with a large enough effect; inconclusive = small, poorly fitted or top-dose-only effect, or another doubt; inactive = no such curve, though single readings can be large or run the other way;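 note: the enzyme is Sfp with the accession as filed and its product quenches rhodamine fluorescence; potency is the fitted concentration of half-maximal effect; 0% = enzyme reaction without inhibitor and -100% = no enzyme wells; top concentration of the series not given in the record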
#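 Buffer: 50 mM Hepes-Na pH 7.6, 10 mM MgCl2, 0.01% Nonidet P-40, 0.01% BSA. Enzyme 15 nM, pre-exposed to compound 15 min; substrates then added and fluorescence change tracked over 30 min.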
# The depositor's hits bear a star; ? = inconclusive; · = no result given; & = joins results of further samples; [ ] = dose if it differs, or a comment. Hits appear at their usual frequency; 4.9% or so of the library scored in one or more.
SMILES | TRPV1 potentiator | TRPML1 blocker | gsp antag | ClpP mod | gsp agonist | Menin-MLL FL inh | Sfp inh
COc1ccc(NC(=O)/C(=C/c2ccc(OC(C)=O)c(OC)c2)NC(C)=O)cc1 | 0 | -11 | 8% | -3.9% | ? | 3.0 | 5%
CC(C)OC(=O)c1cc2c(ccn2C)n1CC(=O)N(Cc1ccccc1)c1ccccc1 | -5 | 34 | -10% | 28µM* | -18% | -0.6 | -15%
O=C(NNS(=O)(=O)c1ccc([N+](=O)[O-])cc1)c1ccccc1 | · | -2 | -15% | 0.6% | -5% | · | ·
COc1ccc(CCNC(=O)C2CCC(=O)N(C3CCCCCC3)C2)cc1 (stereo not given) | -8 | -2 | 50µM* | -4.5% | ? | · | -4%
COc1ccc(NC(=O)CC2C(=O)N(c3ccc(Cl)cc3)C(=S)N2CCc2ccncc2)cc1 (stereo not given) | 17 | 22 | ? | 1.2% | 2% | 3.0 | 1%
CCCn1c(O)c(N=NC(=O)CNC(=O)Cc2ccc(OC)cc2)c2ccccc21 | -21 | 18 | -2% | -3.3% | -2% | · | 7%
S=C1SCN(Cc2ccccc2)CN1Cc1ccccc1 | -11 | -1 | 3% | 1.9% | 16% | -7.4&4.9 | -10%&-7%
CN(Cc1ccc2c(c1)OCCO2)C(=O)CSc1ncnc2sccc12 | · | 1 | -1% | -3.5% | ? | · | ·
CCOC(=O)CN(c1cc([N+](=O)[O-])ccc1OC)S(C)(=O)=O | 0 | 7 | 2% | · | 27%[15.4 µM] | 3.9 | -4%
O=C(Cn1cnc2sc3c(c2c1=O)CCCC3)NCC(=O)Nc1c(F)cccc1F | 8 | 7 | -3% | -0.2% | ? | · | -21%
O=C(c1cccs1)N1CCN=C1SCc1ccccc1F | -25 | 0 | 11% | -1.8% | -5%[15.4 µM] | 0.2 | -7%
COc1ccc(C(=O)NCCNc2ccc([N+](=O)[O-])cc2)cc1OC | -2 | 15 | -2% | 0.0% | -1%[15.4 µM] | -3.5 | 13%

# Entries of single compounds, quoted from the list. Order of values: TRPV1 potentiator	TRPML1 blocker	gsp antag	ClpP mod	gsp agonist	Menin-MLL FL inh	Sfp inh
# `O=C(NNS(=O)(=O)c1ccc([N+](=O)[O-])cc1)c1ccccc1` reads ·	-2	-15%	0.6%	-5%	·	·
# `O=C(c1cccs1)N1CCN=C1SCc1ccccc1F` reads -25	0	11%	-1.8%	-5%[15.4 µM]	0.2	-7%
# `COc1ccc(NC(=O)/C(=C/c2ccc(OC(C)=O)c(OC)c2)NC(C)=O)cc1` reads 0	-11	8%	-3.9%	?	3.0	5%

# Continuation.
SMILES | TRPV1 potentiator | TRPML1 blocker | gsp antag | ClpP mod | gsp agonist | Menin-MLL FL inh | Sfp inh
CCC(C)NC(=O)COCc1cc(-c2ccc3c(c2)OCO3)on1 (stereo not given) | 4 | -4 | -6% | · | -19% | 4.9 | 7%
O=c1cc(-c2ccco2)nc(SCc2cccc(Cl)c2)[nH]1 | -2 | · | 2% | 0.2% | -12% | 5.2 | 4%
CN(C(=O)c1cccc(C#N)c1)c1nnc(-c2ccncc2)s1 | 7 | 14 | -8% | -4.9% | 6%[15.4 µM] | 2.6 | 8%
COCCNC(=O)c1ccc(-n2c(SCc3ccncc3)nc3ccccc3c2=O)cc1 | -2 | 20 | 7% | -1.0% | 3%[15.4 µM] | 1.8 | 8%
COC(Cn1c(C)c(C(C)=O)c(C(C)=O)c1C)OC | -12 | 2 | 4% | -3.0% | -18% | 0.5 | 16%
O=C1Nc2ccccc2C1(O)C/C(=N/O)c1ccccc1 (stereo not given) | -11 | 2 | -6% | · | -2%[15.4 µM] | -8.0 | 13%
CC(=O)OC1=Cc2c(ccc3ccc(=O)oc23)OC1(C)C | 1 | 9 | 4% | 62% | 0% | 4.5 | 7%
O=C(Nc1cccc2c1C(=O)NC2=O)c1ccccc1[N+](=O)[O-] | 23 | · | -8% | 1.7% | 35% | -4.4 | -11%
Cc1coc(NC(=O)CSc2nc(-c3ccncc3)cc(C(F)(F)F)c2C#N)n1 | 23 | -5 | 9% | 14% | 12% | 4.9 | 1%
COc1cc(NC(=O)C23CC4CC(C2)CC(n2nnc(C)n2)(C4)C3)c(OC)cc1Cl | -12 | -12 | 10% | 0.4% | -8% | 0.4 | -5%
COc1ccc([N+](=O)[O-])cc1NC(=O)CCSCCc1ccccn1 | 5 | -2 | -6% | · | 2% | -3.3 | 21%
CC(=O)Oc1ccccc1/C=C/c1ccc2ccccc2[n+]1C | -6 | 0 | ? | -18% | -2% | -2.8 | -19%
Cc1ccc(NC(=S)N(C)N)cc1Cl | 3 | 9 | 8% | · | 8% | 0.0 | -14%
COc1ccc(-c2cc(C(F)F)n3ncc(C(=O)N4CCN(C)CC4)c3n2)cc1 | -5 | 5 | 6% | 25µM* | -29% | 3.3 | -3%
COc1ccc(NC(=O)CN(C)C(=O)CNC(=O)C2CCCCC2)cc1 | 12 | 1 | 9% | -1.7% | 1%[15.4 µM] | · | 14%
CC1(C)C2CC=C(/C=N/NC(=O)c3ccc(O)cc3)C1C2 (stereo not given) | -4 | -4 | -18% | · | -24% | -0.9 | 12%
Cc1cc(=O)n2[nH]cc(C(=O)O)c2n1 | -1 | 7 | 6% | ? | -15% | 1.6 | -4%
O=C(O)c1ccc(NS(=O)(=O)c2ccc(NC(=O)c3ccccc3Cl)cc2)cc1 | -42 | 9 | 15% | 3.1% | 1% | -2.2 | 5%
CCOC(=O)NC(=O)CN1C(=O)NC(C)(c2ccccc2)C1=O (stereo not given) | 2 | 10 | 14% | 1.0% | 5% | -1.1 | 8%
Cn1c(Cn2c(=O)sc3ccccc32)nnc1SCC(=O)Nc1cccc(F)c1 | 4 | -4 | -2% | 0.9% | 3% | -0.5 | 6%
Cn1nccc1C(=O)N1CCCC(C(=O)c2cccc3ccccc23)C1 (stereo not given) | -5 | -25 | 2% | · | -172%[inhibitor] | 3.1 | -11%
O=C(NCC1CCCO1)c1cc(C(=O)c2ccc(Cl)cc2Cl)c[nH]1 (stereo not given) | -9 | 7 | -4% | 0.7% | -6% | -0.7 | 7%
COc1ccc(NC(=O)/C=C/c2cc(Br)ccc2OC)cc1 | -21 | 22 | -13% | -1.8% | 3% | 8.1 | 5%
COC(C[C@H](O)CC(=O)[C@H](C)OCc1ccccc1)OC | -9 | 0 | -3% | -1.7% | · | 2.0 | 15%

# (cont.)
# The line under a structure holds: TRPV1 potentiator, TRPML1 blocker, gsp antag, ClpP mod, gsp agonist, Menin-MLL FL inh, Sfp inh
> CC1c2c([nH]c3ccccc23)CCC1C(=O)O (stereo not given)
 : 9, -3, -17%, -8.0%, ?, 0.6, 21%
> CC1CCN(CCc2nc3cc(NC(=O)COc4ccc([N+](=O)[O-])cc4)ccc3n2C)CC1
 : 9, -9, -6%, -0.6%, -6%, ·, -5%
> COC(=O)Cc1c(C)nc2nc(-c3ccco3)[nH]n2c1=O
 : 1, -9, 2%, ?, -5%, -1.5, 56µM*
> CCN(CC)CCCNC(=O)c1ccc(S(=O)(=O)Nc2ccc(C)c(C)c2)cc1
 : 5, 11, 8%, 1.1%, -2%[15.4 µM], ·, ·
> CC(C)c1ccc(OCCCN2CCCC2)cc1
 : 2, ·, 17%, 0.8%, 17%, 4.9, -12%
> Cc1ccc(NC(=S)NC(=O)c2ccc(-c3ccccc3)cc2)cc1
 : ·, 63, -3%, -4.3%, -11%, ·, ·
> CCC(C)(C)NC(=O)CN(C(=O)C(=O)Nc1ccc2c(c1)OCCO2)C1CC1
 : 7, 29, 2%, 0.3%, 1%[15.4 µM], -1.6, -15%
> CCC(=O)Nc1c2c(nn1-c1ccc(OC)cc1)CS(=O)C2 (stereo not given)
 : 6, -4, 9%, -1.5%, -4%, 5.0, 21%
> COc1ccc(CNC(=S)Nc2cc(OC)ccc2OC)cc1
 : 6, -1, -12%, 0.9%, -44%[inhibitor], 5.2, 13%
> Cc1ccnc(NC(=O)c2ccc([N+](=O)[O-])o2)c1
 : 3, 6, 17%, 30%, ?, 1.5, 15%
> COc1cc2nc(NC(=O)c3ccco3)sc(=O)c2cc1OC
 : 6, -1, -19%, ·, 10%, 0.0, 9%
> COC(=O)c1sc2nc(CN3CCN(c4ccc(OC)cc4)CC3)[nH]c(=O)c2c1C
 : -7, 1, 12%, -2.2%, -21%, 11, -17%
> O=C(Nc1ccc(F)cc1F)N1CCN(C/C=C/c2ccccc2)CC1
 : -16, 22, 6%, -1.8%, -41%[inhibitor], 1.1, 3%
> COc1ccc(C(=O)CSc2nc3[nH]ncc3c(=O)[nH]2)cc1
 : 13, -6, -8%, ·, 35%[15.4 µM], 0.5, 5%
> Cc1occc1C(=O)Nc1nn[nH]n1
 : 12, -10, 6%, 0.4%, -4%, -1.0, -16%
> CCC(C)[C@H](NC(=O)N1CCn2c1nc1ccccc12)C(=O)NCC1CCCO1 (stereo not given in full)
 : -38, -29, -3%, -4.1%, ?, 5.3, 2%
> NC(=O)c1cccc(S(=O)(=O)N2CC(c3ccccc3)CC2=O)c1 (stereo not given)
 : ·, -8, -3%, 0.4%, -32%[inhibitor], -1.8, 0%
> COCCN(C(=O)COC(=O)C1=COCCO1)c1c(N)n(Cc2ccccc2)c(=O)[nH]c1=O
 : -1, 48, -4%, -1.9%, 2%, ·, 13%
> CCC(c1nnnn1Cc1ccccc1)N1CCN(c2ccc(OC)cc2)CC1 (stereo not given)
 : 0, 1, -2%, -3.5%, 7%, -0.2, -3%
> CC(C)Nc1nc2cccnc2s1
 : 3, 1, 10%, ·, 4%[15.4 µM], 0.7, 22%
> COc1ccc(CCNCC(=O)Nc2c(C)cc(C)cc2C)cc1OC
 : 0, 7, 8%, 1.6%, -22%, -0.3, 0%
> Cc1ccc(S(=O)(=O)N2CCOCC2)cc1NC(=O)CNCc1ccccn1
 : 6, ·, 1%, -1.9%, 17%, 2.2, 19%
> Cc1cc(C(=O)O)cc(S(=O)(=O)NNC(=O)c2cccs2)c1C
 : 2, -5, 7%, 1.5%, 36%, 4.6, -3%
> COc1ccccc1Nc1nc(N)nc(CN2CCOCC2)n1
 : ·, -9, 15%, 0.8%, 9%, 1.3, -2%

# Assay outcomes: PubChem BioAssay, National Center for Advancing Translational Sciences (NCATS)
